Source: PubChem BioAssay (several laboratories)
B2AR ag = activates human beta-2 adrenergic receptor causing internalization; P07550; Am2.2-beta2AR cells, FAP receptor internalization, flow cytometry; reference of the scale not given here; response, % (concentration not given with the values); 340,000 compounds, 0.43% hits;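 active = response above a set limit, near 3 SD of response in nonfluorescent compounds, cut at about 42% in these data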;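 also: stock transfer was 100 nL into about 11 µL; a reference agonist was the positive control; negative values mostly stem from fluorescent compounds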
Target sequence (P07550 whole entry, looked up): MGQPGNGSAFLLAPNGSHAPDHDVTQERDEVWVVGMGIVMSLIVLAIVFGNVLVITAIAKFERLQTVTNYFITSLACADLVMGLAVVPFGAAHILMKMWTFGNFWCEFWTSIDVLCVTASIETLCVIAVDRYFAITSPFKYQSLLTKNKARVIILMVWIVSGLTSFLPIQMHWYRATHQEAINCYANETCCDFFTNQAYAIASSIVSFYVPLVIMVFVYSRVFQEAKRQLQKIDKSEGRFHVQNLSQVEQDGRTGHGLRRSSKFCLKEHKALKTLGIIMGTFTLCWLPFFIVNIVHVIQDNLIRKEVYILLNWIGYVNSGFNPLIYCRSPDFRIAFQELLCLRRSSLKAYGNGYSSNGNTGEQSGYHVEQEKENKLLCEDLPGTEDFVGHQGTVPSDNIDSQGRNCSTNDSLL
HNF4A DNA FP = change in binding of human HNF4 alpha to DNA. HNF4a-FITC DNA binding, fluorescence polarization, 1 h. activity change, % at 10 µM. 360,000 compounds, 0.3% hits. AID 1224865; in the data active = activity change above about 30%, passing the limit was not always enough;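 also: controls were the assay level and a saturating level of protein; the project sought stronger binding though the title names inhibitors; some compounds called inactive have numbers as strong as hits; positive values seem to mean higher polarization but the record does not say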
LANA-H2B inh = blocks KSHV LANA binding to histone H2A/H2B | Q9QR71 | inhibition, % (concentration not given with the values) | cell-free LANA-H2A/H2B peptide, fluorescence polarization | 320,000 compounds, 0.6% hits | AID 2629; in the data active = inhibition mostly above about 10%, no sharp cut-off; inactive = mostly below about 6.7%;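 also: stock transfer was 7.5 nL into about 10 µL; 0% = median of vehicle wells and 100% = median of positive control wells; one replicate is shown; the record names a cut of 25% in any replicate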
ALR H2O2 inh = inhibitors of human sulfhydryl oxidase ALR; 290,000 compounds, 3.8% hits; purified ALR, DTT oxidation, H2O2 HRP-luminol luminescence; inhibition, % (no concentration beside the values); P55789;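 active = mean and each replicate at 75% or more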;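 also: stock transfer was 7.5 nL into about 7.5 µL; 0% = neutral wells and 100% = wells with inactivated enzyme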
FGF22 binding = FGF22 (human) thermal shift binding; recombinant FGF22 thermal shift, SYPRO orange fluorescence; percent of sucrose octasulfate shift, DMSO zero; calls only at 9.99 µM; 340,000 compounds, 1.5% hits;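 active = melting point raised past a set limit in the mean and every replicate; three in four hits are not shown here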
Target sequence (Q9HCT0 whole entry, looked up): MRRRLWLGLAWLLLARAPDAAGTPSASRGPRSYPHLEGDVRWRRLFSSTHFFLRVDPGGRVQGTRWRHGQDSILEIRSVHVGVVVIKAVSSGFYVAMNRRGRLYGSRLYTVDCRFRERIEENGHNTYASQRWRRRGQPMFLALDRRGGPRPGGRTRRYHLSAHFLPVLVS
UCH37 inh = inhibitors of human deubiquitinating enzyme UCH37 | Q9Y5K5 | purified proteasome/UCH37, Ub-AMC cleavage fluorescence | inhibition, % (test concentration not listed) | 330,000 compounds, 0.33% hits | AID 588478;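 active = mean of two replicates above 20%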;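 also: 0% = compound-free wells with enzyme and 100% = wells lacking proteasome; stock transfer was 100 nL into about 20 µL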
Target sequence (Q9Y5K5 whole entry, looked up): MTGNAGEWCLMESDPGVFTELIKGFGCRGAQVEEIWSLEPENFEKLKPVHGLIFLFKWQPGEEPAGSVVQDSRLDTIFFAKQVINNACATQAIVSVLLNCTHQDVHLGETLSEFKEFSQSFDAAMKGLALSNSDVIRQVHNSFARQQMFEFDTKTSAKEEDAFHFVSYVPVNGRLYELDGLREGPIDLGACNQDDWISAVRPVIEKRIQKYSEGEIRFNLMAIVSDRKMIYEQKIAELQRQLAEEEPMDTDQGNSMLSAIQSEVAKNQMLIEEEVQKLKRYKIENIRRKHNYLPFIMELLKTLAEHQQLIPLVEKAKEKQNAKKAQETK
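Schedule: 30 min plus 25 min, room temperature / Material: human UCH37 within purified proteasomes / Technique: AMC fluorescence intensity at 355/460 nm / Buffer or medium: pH 7.4 Tris-HCl (50 mM) with ovalbumin, ATP-MgCl2, DTT / Controls: wells without proteasome as full block, compound-free enzyme plus substrate as uninhibited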
E coli growth = blocks Escherichia coli growth | OD600, 23 h; active compounds read low | OD600 absorbance (no concentration beside the values) | 330,000 compounds, 0.21% hits | AID 1053175;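 active = OD600 absorbance below the run mean of sample wells minus 3.6 SD, in any replicate, cut at about 0.56 in these data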;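 also: stock transfer was 300 nL into about 60 µL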
Numbers without * were called inactive; i = inactive; nt = not tested or not shown. The list is partial; the hit share may differ from the screen's.

Order of results: B2AR ag	HNF4A DNA FP	LANA-H2B inh	ALR H2O2 inh	FGF22 binding	UCH37 inh	E coli growth
- Cc1c(Nc2cc(N3CCCC(C)C3)c3nonc3c2[N+](=O)[O-])c(=O)n(-c2ccccc2)n1C (centres undefined)
→ nt	-2.1	0.8	-5	nt	10	0.74
- O=C(CC12CC3CC(C1)CC(CC(=O)N1CCCC1)(C3)C2)N1CCCC1
→ -9	1.0	-3.8	-1	nt	3.1	0.72
- CNC(=S)NNC(=O)c1ccc(=O)n(Cc2ccc(Cl)cc2Cl)c1
→ 5	1.1	-0.3	15	i	3.9	0.66
- CCCCn1c(SCC(=O)Nc2cc(NC(=O)c3ccco3)ccc2C)nc2ccccc2c1=O
→ 0	3.6	2.5	nt	nt	-16	0.69
- CN(C)CCn1c(NC(=O)c2ccc(Cl)cc2)nc2ccccc21
→ 7	-2.4	1.3	-6	nt	-141	0.65
- CCCCCc1nnc(NC(=O)Cc2cccs2)s1
→ -6	4.7	-3.1	-28	nt	2.6	0.74
- Cc1cc(OCC(O)CN2C(C)CCCC2C)ccc1C(C)C (centres undefined)
→ 2	-4.4	1.6	3	i	0.3	0.62
- Cc1ccccc1C(C(=O)NC1CCCCC1)N(C(=O)CNC(=O)c1ccco1)c1cccnc1 (centres undefined)
→ 0	2.2	3.6	25	i	2.4	0.66
- Cn1cccc1Cc1nnc(SCC(=O)Nc2ccc(F)cc2)n1-c1ccc(F)cc1
→ 1	0.6	1.9	4	i	0.0	0.75
- O=C(O)c1ccccc1C(=O)NNc1ccc(F)cc1
→ 4	1.6	1.8	45	nt	3.4	0.69
- O=C1CCCc2c1sc1nc3n(c(=O)c21)CCCCC3
→ -7	2.0	-2.2	-3	nt	5.1	0.75
- Cn1c(CNC(=O)c2cccs2)n[nH]c1=S
→ 5	-2.3	7.3	42	i	-2.6	0.71
- O=C(COc1ccc2ccc(=O)oc2c1)N1CCN(C(=O)C2COc3ccccc3O2)CC1 (centres undefined)
→ -5	-1.1	-5.5	-16	i	-23	0.66
- N#C/C(=C\c1cn(-c2ccccc2)nc1-c1cccnc1)c1nnc2n1CCCCC2
→ 2	-1.7	-2.2	22	nt	6.7	0.69
- Cc1cccc(C)c1NC(=O)CCc1nnc2ccc(N3CCCC3)nn12
→ -12	11	-2.3	-4	i	6.9	0.7
- CCn1ncc(CNC(=O)c2cccc([N+](=O)[O-])c2)c1C
→ nt	nt	5.4	-9	nt	2.8	0.65
- O=C(O)CCn1c(=S)oc2ccccc21
→ 1	0.0	-0.7	-6	nt	2.2	0.67
- CCN1CCN(CCc2nc3cc(NC(=O)COc4ccc(Cl)cc4)ccc3n2C)CC1
→ 5	1.3	1.8	nt	i	6.6	0.63
- O=C(Nc1cccc(NC(=O)c2cccs2)c1)c1ccco1
→ -8	-0.9	6.3	1	nt	-0.3	0.69
- COc1cc2c(cc1OC)C(CC(=O)O)N(C(=O)CC1CCCC1)CC2 (centres undefined)
→ -5	2.9	0.8	-3	i	-18	0.68
- Cc1ccccc1-c1nc(CS(=O)(=O)CC(=O)N(C)C2CCCCC2)c(C)o1
→ 10	7.0	0.4	-8	i	5.0	0.69
- CCOc1ccc(N(C)S(=O)(=O)c2ccc(-c3cc(C)no3)s2)cc1
→ 0	-48	0.2	-8	i	3.1	0.78
- CC(C)(C)C(=O)N1CCC[C@@]1(CO)C(=O)O
→ -1	1.4	-7.0	-22	nt	2.5	0.67
- CC(C)NC(=O)COCc1cc(-c2ccc3c(c2)OCO3)on1
→ -5	-0.3	-2.7	-1	i	6.3	0.65
- Cc1ccc(N(Cc2ccccc2)C(=O)c2cccc(S(=O)(=O)N3CCOCC3)c2)cc1
→ 6	1.1	0.3	-2	nt	1.7	0.65
- CN(C(=O)COC(=O)COc1ccccc1F)C1CCS(=O)(=O)C1 (centres undefined)
→ 6	-1.4	3.8	nt	nt	0.1	0.71
- COc1ccc2c(c1OC)C[N+]1([O-])CCc3cc4c(cc3C1C2)OCO4 (centres undefined)
→ -1	0.9	3.8	nt	i	1.2	0.69
- CCCN1Cc2cccc(C(=O)NCc3ccccc3OC)c2C1=O
→ -7	4.6	0.6	-3	nt	1.3	0.65
- CC(=O)Nc1ccc(-c2csc(Nc3cccc(C)n3)n2)cc1
→ 22	-0.4	nt	nt	i	3.0	0.67
- O=C1c2ccccc2S(=O)(=O)c2cc(C(=O)N3CCN(c4c(Cl)cncc4Cl)CC3)ccc21
→ 0	-3.8	-2.8	0	i	4.3	0.7
- O=C1C(Cc2ccccc2O)NC(=S)N1c1ccccc1 (centres undefined)
→ -18	-0.9	3.2	15	i	0.7	0.69
- O=c1c(Cl)c(NCc2ccc(F)cc2Cl)cnn1C12CC3CC(CC(C3)C1)C2
→ 0	0.9	-4.4	-3	i	4.4	0.68
- N=c1c2cn[nH]c2nc(SCC(=O)c2ccc(Br)cc2)n1-c1ccc(Br)cc1
→ -12	-1.4	-0.5	-4	i	nt	nt
- O=S(=O)(c1ccc(-c2csc(-c3cccnc3)n2)cc1)N1CCCCC1
→ 9	2.1	-5.9	62	nt	1.1	0.66
- CCn1c(CSc2nc3ccccc3s2)nnc1SCC(=O)NCC(=O)OC
→ -6	-1.2	-2.7	-3	nt	-1.4	0.74
- O=C(NCCCN1CCCC1=O)c1c(O)nc2ccccn2c1=O
→ -3	-5.1	-0.8	-3	i	-92	0.71
- CCCc1nn(C)c(C(=O)Nc2cccc(Cl)c2)c1Cl
→ 3	-0.4	-5.2	-3	nt	5.7	0.69
- COc1ccc(NC(=O)CSc2nccc(C)n2)cc1
→ 1	0.8	-0.7	1	nt	-1.1	0.71
- O=C(c1ccc(F)cc1)N1CCN(C2CCCCC2)CC1
→ 3	-1.2	-1.6	-11	i	2.2	0.63
- COc1cccc(C(=O)NNC(=O)c2cccc3ccccc23)c1
→ -3	0.8	nt	nt	i	0.4	0.67
- CCc1nn(CCCC(=O)Nc2ccc(C)cc2C)c(=O)c2cc3occc3n12
→ -3	8.6	3.4	2	i	-5.6	0.69
- O=C(Cc1ccc(S(=O)(=O)N2CCOCC2)s1)Nc1ccc(Br)c(C(F)(F)F)c1
→ 7	0.5	nt	nt	i	3.3	0.68
- Cc1nn(Cc2ccc([N+](=O)[O-])cc2)c(=O)n1-c1ccccc1
→ 4	0.2	2.0	-2	nt	2.9	0.72
- CCOC(=O)c1[nH]c2c(c1C)C(=O)CC(c1ccc(F)cc1)C2 (centres undefined)
→ -3	5.5	-3.4	nt	i	-3.2	0.69
- COc1cc(OC)cc(C(=O)OCCCOC(=O)c2cc(OC)cc(OC)c2)c1
→ -2	-0.3	0.6	-4	i	0.6	0.71
- CC1(c2nnc(-c3ccncc3)o2)CC(c2ccccc2)=NO1 (centres undefined)
→ 13	1.4	-5.8	nt	i	nt	nt
- CCOc1ccc(Nc2cc(C)nc(-n3nc(C)cc3C)n2)cc1
→ 21	-0.5	1.7	nt	nt	3.4	0.69
- COC(=O)c1ccc(NC(=O)c2snnc2-c2ccccc2)cc1
→ -1	1.6	-1.1	1	i	1.0	0.71
- NC(=O)C1CCN(C(=O)C(=O)c2cn(CC(=O)N3CCCCCC3)c3ccccc23)CC1
→ 6	11	5.9	-14	i	1.5	0.71
- COCC(C)OC(=O)/C(C#N)=C\c1coc2ccc(C)cc2c1=O (centres undefined)
→ 0	35	2.1	96*	i	nt	nt
- COc1ccc(NCc2nn(CC(=O)c3ccc(Br)cc3)c3[n+]2CCCCC3)cc1
→ 0	8.7	-5.5	39	i	4.9	0.69
- Cc1n[nH]c(C)c1C(=O)CC1(O)C(=O)N(CCc2ccccc2)c2ccc(Br)cc21 (centres undefined)
→ -9	-4.6	-5.0	-8	nt	2.5	0.7
- CN(Cc1ccccc1)C(=O)c1cccc(NC(=O)Cc2ccc(NC(=O)C3CCN(C(=O)C4CCCC4)CC3)cc2)c1
→ -12	2.1	nt	nt	i	-0.6	0.7
- CS(=O)(=O)N1CCC2CC1c1cc(-c3ccccc3)ccc12 (centres undefined)
→ 0	1.2	nt	nt	i	nt	nt
- CCOC(=O)C1(Cc2cccc(OC)c2)CCCN(Cc2cc(C(C)C)n[nH]2)C1 (centres undefined)
→ -2	-19	1.1	-14	i	-1.9	0.68
- CCOC(=O)Nc1nc(-c2ccc(F)cc2F)cs1
→ 1	2.4	-12	-1	i	2.2	0.68
- O=[N+]([O-])c1ccc(COc2ccc(CN3CCOCC3)cc2)cc1
→ -2	-2.8	nt	nt	i	nt	nt
- O=S(=O)(Nc1cc(F)ccc1F)c1cccc2nonc12
→ -4	6.8	-0.6	-1	i	4.4	0.75
- Cc1cc(C)cc(N2C(=O)c3nccnc3C2=O)c1
→ -3	3.6	2.3	31	i	6.6	0.68
- Cc1ccc(OCCNC(=O)C2CC(=O)N(c3ccc(C)cc3)C2)cc1 (centres undefined)
→ 1	1.5	-5.9	-4	nt	1.9	0.75

Following part:
Order of results: B2AR ag	HNF4A DNA FP	LANA-H2B inh	ALR H2O2 inh	FGF22 binding	UCH37 inh	E coli growth
- COc1ccc(OCC(=O)NC2CC(C)(C)NC(C)(C)C2)cc1
→ 5	-2.9	3.1	-9	nt	1.1	0.67
- O=C(NNC(=O)C1CCC1)c1ccccc1
→ -7	-4.1	1.7	-8	i	1.5	0.7
- CN(Cc1ccccc1)C(=O)c1ccc(NC(=O)Cc2ccc(NC(=O)C3CCCN(S(=O)(=O)c4cccc([N+](=O)[O-])c4)C3)cc2)cc1 (centres undefined)
→ 2	-0.2	nt	nt	i	4.8	0.71
- COc1ccc(CC(=O)NC(C)c2ccc(Cl)c(Cl)c2)cc1S(=O)(=O)N1CCOCC1 (centres undefined)
→ 3	1.9	nt	nt	i	3.1	0.65
- Cc1cc(C)nc(-n2nc(C)c(Sc3ccc(F)cc3)c2N)n1
→ -3	-5.6	-1.0	15	i	1.2	0.67
- Cc1cccc(OCCCC(=O)NNC(=O)c2ccc(F)cc2)c1
→ -6	6.1	2.1	-19	i	2.4	0.68
- C=CCNC(=S)N(Cc1ccccc1)Cc1ccc(F)cc1
→ -1	-2.8	-3.8	0	i	4.3	0.69
- Cc1ccccc1C(=O)N1CCC(C(=O)Nc2cc(C(F)(F)F)ccc2N2CCCC2)CC1
→ 8	2.6	6.4	0	i	-0.3	0.66
- CCCCn1c(N)c(N(CCC(C)C)C(=O)COC(=O)c2ccccc2)c(=O)[nH]c1=O
→ -1	-3.2	-2.5	0	i	3.9	0.67
- CCc1nnc(NC(=O)c2cccc(S(=O)(=O)N(C)c3ccc(OC)cc3)c2)s1
→ 4	4.7	1.0	-4	i	3.5	0.67
- COc1ccc(CN(C)CC(=O)Nc2ccccc2C(F)(F)F)c(OC)c1
→ -2	3.1	-3.4	0	nt	4.1	0.68
- CC(=O)N1CCN(C(=S)NC(=O)c2c(-c3ccccc3Cl)noc2C)CC1
→ 3	3.4	-0.4	95*	i	3.9	0.72
- O=C(CSc1nnc(COc2cccc3ccccc23)o1)N1CCN(C(=O)c2ccco2)CC1
→ -3	2.6	0.1	-2	nt	2.3	0.7
- CCSc1nnc(N(CCC#N)CCC#N)s1
→ 6	0.1	0.3	-11	nt	4.4	0.72
- OC1(C2(O)CC(c3ccccc3)ON2)CCCCC1 (centres undefined)
→ 1	-1.0	2.5	-5	nt	-0.3	0.73
- CCNC(=S)Nc1ccc2c(c1)oc1ccccc12
→ 5	-3.1	1.4	-4	i	6.6	0.63
- CC(C)N(C(=O)[C@H]1CC(CC(=O)NCCC2=CCCCC2)C(=O)N2CCc3c([nH]c4ccccc34)[C@]12C)C(C)C (some centres undefined)
→ -3	0.4	i	-4	i	2.3	0.67
- Cc1c(Cl)cccc1NC(=O)CSc1nc(=O)n(CCCN2CCOCC2)c2c1CCC2
→ -2	-0.7	-0.4	94*	i	1.4	0.65

Pulled by compound from the entries so far:
Order of results: B2AR ag	HNF4A DNA FP	LANA-H2B inh	ALR H2O2 inh	FGF22 binding	UCH37 inh	E coli growth
- CCc1nnc(NC(=O)c2cccc(S(=O)(=O)N(C)c3ccc(OC)cc3)c2)s1
→ 4	4.7	1.0	-4	i	3.5	0.67
- Cc1ccccc1C(=O)N1CCC(C(=O)Nc2cc(C(F)(F)F)ccc2N2CCCC2)CC1
→ 8	2.6	6.4	0	i	-0.3	0.66
